S aureus helic – blocks Staphylococcus aureus DNA helicase | purified S. aureus helicase, fluorescence unwinding assay; about half of the hits fall short of the stated cut | 0.05% of 120,000 active | inhibition, %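 (tested at about 80 µM)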;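 active means both duplicates at 50% or more, or one of them with a favoured structure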;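 further: 0% = mean of negative control wells and 100% = mean of positive control wells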
MgrA-DNA mod – modulators of Staphylococcus aureus MgrA DNA binding; fluorescence polarization; inhibition, %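 (about 10 µg/mL by stock and volumes)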; 0.13% of 84,000 active;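 active means above 50% in either of two replicates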;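 further: 0% = protein plus DNA without compound and 100% = DNA alone without protein; higher means less MgrA bound to DNA so lower polarization; one replicate is shown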
The depositor's hits bear a star; · = no result given; & = joins results of further samples. A portion of the library (hit frequency here may not be typical).

S aureus helic	MgrA-DNA mod	Compound
-18	·	O=C(Cn1cnc2onc(-c3ccc(Cl)cc3)c2c1=O)NCCC1=CCCCC1
·	-0.1	NNC(=O)Cn1nnc(-c2cccc([N+](=O)[O-])c2)n1
6	-2.6	CC1CCc2c(sc3ncn(CC(=O)N4CCCC4)c(=O)c23)C1 (stereo unspecified)
-2	·	CSc1ccccc1C(=O)NCc1ccc(S(N)(=O)=O)cc1
-35	·	O=C1CN(c2cc(Cl)cc(Cl)c2)C(=O)CN1/N=C/c1cccnc1
18	·	COC(=O)C1(O)CC(C)N(C)CC1C (stereo unspecified)
·	1.7	CCN(C(=O)C(Cc1ccccc1)C(=O)N(CC)c1ccccc1)c1ccccc1
-1	0.6	COCCN1C(=O)C2C3c4ccccc4C(c4ccccc43)C2C1=O (stereo unspecified)
6	·	CC1CCN(c2nccn(-c3cccc(Cl)c3)c2=O)CC1
4	·	O=C(O)/C=C/c1ccsc1
-4	·	O=C(CCc1nc(-c2cccs2)no1)Nc1cccc(C(=O)NC2CC2)c1
·	-1.8	CSc1n[nH]c(=O)n1-c1ccc(Cl)cc1
·	3.4	Cc1cc(CSC(N)=Nc2ccccc2)c(C)cc1CSC(N)=Nc1ccccc1
5	·	CCn1c(C(=O)N2CCC(C(=O)NC(C)c3ccccc3)CC2)cc2sccc21 (stereo unspecified)
3&7	8.2	O=c1c2c(-c3cccs3)csc2[nH]c(=S)n1-c1ccccc1
·	-1.4	N#C/C(=C\c1ccccc1OC(F)(F)F)S(=O)(=O)c1ccccc1
9	0.0	O=C1CSc2ccc(C(=O)NC3CCCCCC3)cc2N1
4	·	Cc1[nH]c2ccccc2c1C(c1ccccn1)N1CCC(C(N)=O)CC1 (stereo unspecified)
1	1.2	COc1ccc(CC(=O)OC2CCCN(C)C2)cc1 (stereo unspecified)
-5	0.8	Cc1ccc(-c2ccc(NC(=O)c3ncoc3-c3ccc(F)cc3)cc2)o1
·	1.1	CCOC(=O)c1sc(/S(C)=N/C(=O)Nc2ccccc2Cl)c2c1CCC=C2 (stereo unspecified)
35	·	CCNc1c(NC(=O)c2cc(OC)c(OC)c(OC)c2)c(=O)oc2ccccc12
-32	·	Cc1ccc(-n2ncc3c(NCCc4ccc(S(N)(=O)=O)cc4)ncnc32)c(C)c1
·	-1.9	CNC(=S)N/N=C/c1ccc2c(c1)OCO2
5	-0.5	C=CCNc1oc(-c2cccs2)nc1C#N

Compound profiles (already shown):
`Cc1ccc(-c2ccc(NC(=O)c3ncoc3-c3ccc(F)cc3)cc2)o1` is listed as S aureus helic = -5; MgrA-DNA mod = 0.8
`COCCN1C(=O)C2C3c4ccccc4C(c4ccccc43)C2C1=O` (stereo unspecified) is listed as S aureus helic = -1; MgrA-DNA mod = 0.6

Continued:
S aureus helic	MgrA-DNA mod	Compound
3	·	COc1ccc(-c2noc(C3CCN(C(=O)OC(C)(C)C)CC3)c2C(=O)O)cc1
7	·	Cc1csc(SCC(=O)Nc2ccc(S(N)(=O)=O)cc2)n1
·	4.2	Cc1nnsc1C(=O)Nc1ccc(-n2nc(C(F)(F)F)cc2C(F)(F)F)cc1
·	-0.2	Cn1cc(Br)c(NC(=O)c2ccc(Cl)c(Cl)c2)n1
-4	1.0	O=C(O)c1cccc(Cn2cc(Cl)cn2)c1
-5	1.2	Cc1ccc(C(=O)COC(=O)CCc2nc3ccccc3[nH]c2=O)cc1C
7	·	OC(Cn1ccnc1)n1c(-c2ccccc2)nc(-c2ccccc2)c1-c1ccccc1 (stereo unspecified)
3	·	O=C1c2ccccc2S(=O)(=O)N1CC(O)COc1ccccc1 (stereo unspecified)
10	0.0	FC(F)(F)c1nnc2n1N=C(c1ccc(Cl)cc1Cl)CS2
-9	·	Cc1ccc(-n2ncc3c(Nc4ccccc4)ncnc32)cc1
-6	·	Cc1cccc(NC(=O)[C@@H]2CCCN2C(=O)OC(C)(C)C)c1
-3	-2.6	Cc1cc2c(=O)[nH]c(Cc3ccccc3)nc2s1
-34	·	Nc1ccc(O)c(-c2nc3ccccc3o2)c1
5	-3.2	COc1ccc(CCNc2ccc(C)cc2)cc1
-22	·	CCCCSc1nnc2c(=O)[nH]c(=O)[nH]c2n1
11	1.4	O=C(Cn1c(-c2ccccn2)nc2ccccc21)NCCCn1ccnc1
·	3.2	Cc1ccc2c(c1C)NC(=O)CC(c1ccccc1O)=N2
3	·	CN(C)C(=S)SCC(=O)Nc1ccc(F)cc1
-17	·	O=C(NCC1CCCCC1)c1ccc(-n2cnnn2)cc1
-9	·	Cc1ccnc(NS(=O)(=O)c2ccc(NC(=O)c3ccc(S(=O)(=O)N4CCCCC4C)cc3)cc2)n1 (stereo unspecified)
10	-4.2	CN(Cc1nc(-c2ccc(C(F)(F)F)cc2)no1)C1CS(=O)(=O)CC1O (stereo unspecified)
24	·	CC1CN(Cn2nc(-c3ccc(Br)o3)n(Cc3ccccc3)c2=S)CC(C)O1 (stereo unspecified)
21	·	Cc1cccc(NC(=O)Nc2c(O)c3ccccc3oc2=O)c1C
·	24	CC(=O)Oc1cccc2c1C(=O)C=CC2=O
·	-1.8	O=C(NC1CCN(C(=O)C2CCC2)CC1)c1ccccc1

Entries listed so far with a tert-butyl group, in the order listed:
S aureus helic	MgrA-DNA mod	Compound
3	·	COc1ccc(-c2noc(C3CCN(C(=O)OC(C)(C)C)CC3)c2C(=O)O)cc1
-6	·	Cc1cccc(NC(=O)[C@@H]2CCCN2C(=O)OC(C)(C)C)c1

Ordered by the number under S aureus helic (lowest first): 3 from the list above
S aureus helic	MgrA-DNA mod	Compound
-4	1.0	O=C(O)c1cccc(Cn2cc(Cl)cn2)c1
3	·	O=C1c2ccccc2S(=O)(=O)N1CC(O)COc1ccccc1 (stereo unspecified)
5	-3.2	COc1ccc(CCNc2ccc(C)cc2)cc1

3 records picked at random from the list so far:
S aureus helic	MgrA-DNA mod	Compound
·	24	CC(=O)Oc1cccc2c1C(=O)C=CC2=O
·	-1.8	O=C(NC1CCN(C(=O)C2CCC2)CC1)c1ccccc1
-4	1.0	O=C(O)c1cccc(Cn2cc(Cl)cn2)c1

Going on with the list.
S aureus helic	MgrA-DNA mod	Compound
23	-0.4	Cc1ccc(-c2csc(Nc3ccc(C(=O)O)cc3)n2)c(C)c1
12	3.6	CCCCn1c(C2CC(=O)N(c3ccccc3Cl)C2)nc2ccccc21 (stereo unspecified)
1	0.5	CCCNC(=O)C(C)n1c2ccccc2c2cnn(C)c(=O)c21 (stereo unspecified)
14	·	O=C(CCNC(=O)c1ccco1)NC1CCCc2ccccc21 (stereo unspecified)
-28	·	O=C(CCC(=O)Nc1ccc(S(=O)(=O)N2CCCCC2)cc1)Nc1ccc(S(=O)(=O)N2CCCCC2)cc1
5	4.6	Cn1c(CCCCN)nc2ccccc21
7	1.1	COc1ccc(C2(C(=O)NCc3ccco3)CCOCC2)cc1
·	-0.9	Cc1cccc(C)c1NC(=S)NCc1ccncc1
8	·	COCCN(Cc1ccco1)C(=O)c1cc2c(s1)-c1ccccc1OC2
-19	-0.3	O=C(Cn1cnc2ccccc21)OCC(=O)N1CCc2ccccc21
-1	2.6	O=C(/C=C/c1ccco1)Nc1ccc(CN2CCOCC2)cc1
-1	-1.2	Cc1ccc(CSc2nc3ccncc3n2CC(=O)N(C)c2ccccc2)cc1
9	0.2	OC1(/C=C/CN2CCCCC2)CCCCC1
-17	·	O=C1CCCc2nc(Nc3nc4ccccc4s3)ncc21
·	-3.5	O=C1c2ccccc2C(=O)C1c1ccc(F)cc1
-1	-4.2	CCOC(=O)C1=C(C)NC(C)=C(C(=O)OCC)C1C1=COCCO1
3	·	Cc1cc(C(=O)COC(=O)CC2Sc3ccccc3NC2=O)c(C)n1C (stereo unspecified)
18	·	CCCN(CCC)C(=O)C1=C(C)C(=O)OC12CCC(C)CC2 (stereo unspecified)
·	3.6	CC(C)(C)n1[nH]nnc1=S
·	-2.2	CCOC(=O)c1sc2sc(C(=O)OCC)c(C)c2c1C
0	1.8	O=C(Cn1nnc(-c2ccc3c(c2)OCO3)n1)N1CCOCC1
·	-1.6	CCOC(=O)N/N=C/c1cccc(O)c1
·	-0.3	O=S(=O)(c1ccccc1)n1ccc(-c2ccc(C#Cc3ccccc3)cc2)n1
5	·	O=C(COn1nnc2ccccc21)N1CCC(Cc2ccccc2)CC1
2	0.0	Nc1ccc(-c2nnn(CC(=O)N3CCCC3)n2)cc1
·	-0.2&0.9	CC(=O)OC(C)C[N+](C)(C)C (stereo unspecified)
11	1.8	O=C(O)C1CCC(Cn2c(SCc3ccccc3Cl)nc3ccsc3c2=O)CC1 (stereo unspecified)
7	0.2	C(=N/n1cnc2ccccc21)/c1ccccc1
10	2.9	COC(=O)Cn1cc(/C=C(/C#N)C(=O)NCc2ccccc2)c2ccccc21
1	-0.7	O=C(Nc1ccccc1N1CCCC1)c1ccccc1
9	·	CCOC(=O)C1=C(CN2CCn3cccc3C2C)NC(=O)NC1c1ccc(Cl)cc1 (stereo unspecified)
-10	·	Cc1ccccc1Nc1nc(N)nc(COc2ccc(F)cc2C(=O)c2cc(C#N)c(=O)n(C(C)C)c2)n1
10	0.4	CC(C)(C)c1ccc(OCCCC(=O)N2CCOCC2)cc1
20	2.4	Cc1nc2ccccc2nc1SCC(=O)NC1CCCCC1
·	-3.1	COc1ccc(-c2cc(C(=O)N3CCOCC3)c3ccccc3n2)cc1
·	-0.3	CC1(C)NC(C(=O)O)C(C)(C)S1 (stereo unspecified)
·	-0.6	COCCOC(=O)C1=C(C)OC(N)=C(C#N)C1c1ccc(Br)cc1 (stereo unspecified)
10	·	CCC(=O)N(c1nnc(SCC(=O)NC(=O)c2ccccc2OC)s1)C1CC1
2	0.4	Cc1cccc(N2CCN(Cc3ccco3)CC2)c1C
-7	1.8	COC(=O)c1cc2c(=O)n3ccccc3nc2n(C(C)C)c1=N
4	2.3	CC(C)c1cc(NS(=O)(=O)c2ccccc2)c(O)c(C(C)C)c1
-5	·	CCCn1c(CO)nc2ccccc21
-10	·	FC(F)(F)c1cc(Oc2ncnc3c2oc2ccccc23)cc(C(F)(F)F)c1
-11	·	CC(C)c1ccc(-n2c(-c3ccco3)nc3c(cnn3-c3ccc(Cl)cc3)c2=O)cc1
12	·	C/C(Nc1nc(-c2cc(C)n(Cc3ccccc3Cl)c2C)cs1)=C(/C#N)C(N)=O
4	2.8	O=C(COc1ccc(Cl)cc1)N1CCCC1
13	·	Cn1nc(-c2ccccc2F)c2cc(C(=O)NCc3ccc(F)cc3)sc21
2	0.7	CN1CCC(N(C)C(=O)c2cc(-c3ccccc3Cl)nc3ccccc23)CC1
-20	·	Cc1ccnc2ccc(SC(F)(F)F)cc12
17	·	CN1CCN(C(=O)c2ccc3c(c2)N(Cc2ccccc2)CCS3)CC1

Going on with the list:
S aureus helic	MgrA-DNA mod	Compound
·	-2.1	O=C(O)CSC1CCC(=O)N1 (stereo unspecified)
2	·	N#Cc1ccccc1CSc1nc2ccccc2n1-c1ccccc1
-19	·	CC(=O)NC1(C(F)(F)F)C(=O)Nc2c1c(=O)n(C)c(=O)n2C (stereo unspecified)
-6	-0.6	CCn1cnc(C(=O)NC)c1C(=O)NC
-16	·	COc1cccc(C(=O)Nc2sc3c(c2C(N)=O)CCN(C(C)=O)C3)c1OC
-24	·	COc1ccc(N/C(N)=N/c2nc(C)cc(=O)[nH]2)cc1
·	-0.5	CC(C)c1ccc(C2Oc3ccccc3C3CC(c4ccc(Br)cc4)=NN32)cc1 (stereo unspecified)
-6	·	Cc1ccc(OCCNC(=O)c2ccc(C)o2)cc1
·	0.1	Oc1ccccc1Oc1ccccc1
17	-9.4	Cn1c(=O)c(-c2cc(-c3ccccc3C(=O)NN)n(-c3ccccc3)n2)c(O)c2ccccc21
8	·	CCOC(=O)C1CCN(C(=O)c2cc3c(-c4ccc(OC)c(OC)c4)nn(C)c3s2)CC1
24	-1.4	Cc1ccc2c(c1)CCCN2C(=O)c1csc(C)c1
·	-14	Oc1oc(C=Nc2ccc(OC(F)(F)F)cc2)c2ccccc12
8	2.9	FC(F)(F)c1cccc(N=Cc2ccccc2)c1
-17	·	CN(C)c1ccc(P(=O)(OC2CCCCC2)C(O)c2ccccc2)cc1 (stereo unspecified)
7	·	CCC1C(=O)NCCN1C(=O)c1ccc(Br)o1 (stereo unspecified)
15	-0.2	O=C1CSC(=NC2CCCC2)N1
2	0.4	Cc1ccc(-c2cc3cc(C)c(C#N)c(N4CCCCCC4)n3c2)cc1
·	-1.6	CNc1cc(C(F)(F)F)c(C(=O)Nc2ccc(Cl)cc2Cl)cn1
4	·	Cc1ccccc1NC(=O)Cc1nc(Cn2cc(S(=O)(=O)N3CCCC3)ccc2=O)cs1
-6	·	CCN(CC)S(=O)(=O)c1ccc(N2CCc3cc(OC)c(OC)cc3C2)nc1
·	-2.2	N#Cc1ccc(-c2csc(-c3ccc(C(F)(F)F)cc3)n2)cc1
16	·	Cc1ccc(C2C3=C(CC(C)(C)CC3=O)N(CCN3CCOCC3)C3=C2C(=O)CC(C)(C)C3)cc1
-9	·	O=C(O)CCC(=O)Nc1nncs1
-4	·	O=C(O)CCc1nc2c(cnn2-c2ccccc2)c(=O)[nH]1
·	3.2	Cc1nc(C)c(I)c(Oc2ccc(C#N)cc2)n1
11	-1.2	O=C(Nc1ccc(CN2CCCCC2)cc1)c1c(F)c(F)c(F)c(F)c1F

Screening data from PubChem BioAssay.
